# BRCA1 expr up: activators of BRCA1 expression | MCF7-BRCA1-FFLuc reporter, luminescence, 48 h; response scale: scaled: vehicle 0%, 10 µM genistein 100% | Potency, µM (doses to about 46.1 µM), for inactives: at the highest dose activation, hits mostly activators | hit rate 1.1% among 380,000 | AID 624202; note: nearly all actives have a fitted effect of over 80% in size; some results filed as inactive show a strong effect at the top dose
#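 48 h compound treatment of MCF7-BRCA1-FFLuc cells (phenol-red free MEM, 37 °C), then 15 min with luciferase substrate and luminescence imaging.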
# MBNL1 CUG block: inhibitors of human MBNL1 binding to CUG repeat RNA; TR-FRET MBNL1-His/biotin-(CUG)12 binding, 665/545 ratio; Potency, µM (top dose mostly 57.5 µM), for inactives: top-dose activity change, negative = inhibition, usual class: inhibitors; hit rate 0.036% among 280,000; AID 2675; active = well fitted inhibition curve with a large enough effect in the signal ratio, with a control signal flat, not every such curve was filed as active; the % refers to the signal ratio; note: % is set by controls: 0 for no effect and ±100 for the full control effect
# Target sequence (Q9NR56 whole entry, looked up): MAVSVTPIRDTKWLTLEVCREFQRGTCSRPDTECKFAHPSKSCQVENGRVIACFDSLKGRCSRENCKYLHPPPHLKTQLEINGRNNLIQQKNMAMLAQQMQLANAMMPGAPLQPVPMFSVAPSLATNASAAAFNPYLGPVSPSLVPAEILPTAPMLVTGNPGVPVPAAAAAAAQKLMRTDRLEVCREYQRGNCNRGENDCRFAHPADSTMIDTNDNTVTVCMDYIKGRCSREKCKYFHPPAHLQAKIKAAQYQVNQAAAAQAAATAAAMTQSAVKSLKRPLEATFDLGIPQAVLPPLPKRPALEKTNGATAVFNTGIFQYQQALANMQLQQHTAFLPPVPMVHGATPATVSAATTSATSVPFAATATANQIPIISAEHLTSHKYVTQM
#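 TR-FRET between His-tagged MBNL1 and biotin-(CUG)12 RNA, detected with Tb anti-His antibody (0.055 ng/ul) and streptavidin-XL665 (5 nM), 60 min at room temperature. Compounds titrated 92 nM to 58 uM; 665/545 nm ratio normalized to buffer and complex controls.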
# uPA generation: inhibitors of cell surface uPA generation; hit rate 0.31% among 330,000; AID 540303; Potency, µM (top dose mostly 38.3 µM), for the others: at the top dose activity change, negative = inhibition, actives largely listed as inhibitors; cell surface uPA generation assay, qHTS; active = well fitted inhibition curve with a large enough effect; tested in mouse RAW 264.7 cells; note: % is set by controls: 0 for no effect and ±100 for the full control effect; nearly all actives have a fitted effect of over 55% in size
# NPC1 prom act: activators of NPC1 promoter. hit rate 2.4% among 320,000. Huh7 NPC1 promoter luciferase reporter, 24 h. AID 485313. Potency, µM (doses to about 9.22 µM), inactives show at the highest dose activation, most hits filed as activators;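 note: % of control where 0% means no effect; nearly all actives have a fitted effect of over 60% in size; reporter is driven by a mutant NPC1 promoter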
#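 Huh7 cells stably carrying NPC1 promoter–luciferase, plated in Opti-MEM with 10% FBS for 2 h, were exposed to compound in DMSO for 24 h at 37 °C; luciferase reagent was added for 10 min and luminescence read.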
# Active calls of the source: *; x = not tested or not shown; & = joins results of further samples; [ ] = dose if it differs, or a comment. Unless noted, calls come from the whole dose curve; as a rule, active = well fitted activation curve with a large enough effect; inconclusive = small, poorly fitted or top-dose-only effect; inactive = no such curve, though single readings can be large or run the other way. Potency is the fitted concentration of half-maximal effect. This is a subset, so the mix of outcomes need not match the whole.
1	O=C(O)c1cccc(C(=O)O)c1
2	O=C(CCCN1CCC(O)(c2ccc(Cl)cc2)CC1)c1ccc(F)cc1
3	CCCCC(CC)COC(=O)CCCCC(=O)OCC(CC)CCCC (configuration not stated)
4	CC12CCC3c4ccc(O)cc4CCC3C1CC(O)C2O (configuration not stated)
5	O=C(O)[C@@H](O)[C@H](O)C(=O)O
Assay by compound	1	2	3	4	5
BRCA1 expr up	1.9%	-17.5%	10.0%	-13.2%	0.0%
MBNL1 CUG block	-5.3%	12.0%&-9.4%	x	x	x
uPA generation	-1.4%	-20.3%	11.6%	-26.7%	3.5%
NPC1 prom act	-0.6%	-9.9%[46.1 µM]	2.2%	-2.8%	x

6	CN1CCN(C2=Nc3cc(Cl)ccc3Nc3ccccc32)CC1
7	CC(C)NCC(O)COc1cccc2[nH]ccc12 (configuration not stated)
8	C[C@]12CC[C@@H]3c4ccc(O)cc4CC[C@H]3[C@@H]1C[C@@H](O)[C@@H]2O
9	CC(C(=O)O)c1cccc(C(=O)c2ccccc2)c1 (configuration not stated)
10	CCOC(=O)C1=C(COCCN)NC(C)=C(C(=O)OC)C1c1ccccc1Cl (configuration not stated)
Assay by compound	6	7	8	9	10
BRCA1 expr up	-27.7%&-9.8%	x	-30.2%	16.5%	-66.9%&-27.6%&0.0%&-64.4%
MBNL1 CUG block	-16.2%	-1.6%	-12.2%	-10.6%&1.4%	x
uPA generation	-17.3%	x	-1.3%	12.4%	-7.3%&-27.8%&20.9%
NPC1 prom act	-2.0%[46.1 µM]	4.4%[46.1 µM]	-0.2%	8.3%[46.1 µM]	-9.5%&-8.9%

# In a second layout: four of the compounds above
no. | molecule | BRCA1 expr up | MBNL1 CUG block | uPA generation | NPC1 prom act
7 | CC(C)NCC(O)COc1cccc2[nH]ccc12 (configuration not stated) | x | -1.6% | x | 4.4%[46.1 µM]
8 | C[C@]12CC[C@@H]3c4ccc(O)cc4CC[C@H]3[C@@H]1C[C@@H](O)[C@@H]2O | -30.2% | -12.2% | -1.3% | -0.2%
9 | CC(C(=O)O)c1cccc(C(=O)c2ccccc2)c1 (configuration not stated) | 16.5% | -10.6%&1.4% | 12.4% | 8.3%[46.1 µM]
10 | CCOC(=O)C1=C(COCCN)NC(C)=C(C(=O)OC)C1c1ccccc1Cl (configuration not stated) | -66.9%&-27.6%&0.0%&-64.4% | x | -7.3%&-27.8%&20.9% | -9.5%&-8.9%

# Single records, from the list above.
# C[C@]12CC[C@@H]3c4ccc(O)cc4CC[C@H]3[C@@H]1C[C@@H](O)[C@@H]2O is listed with BRCA1 expr up = -30.2%; MBNL1 CUG block = -12.2%; uPA generation = -1.3%; NPC1 prom act = -0.2%
# CC(C)NCC(O)COc1cccc2[nH]ccc12 (configuration not stated) is listed with BRCA1 expr up = x; MBNL1 CUG block = -1.6%; uPA generation = x; NPC1 prom act = 4.4%[46.1 µM]

# Compound activity (PubChem)
